Cruzain Triton: cruzain (T. cruzi) inhibition with detergent. Potency, µM, without a hit: max response, negative = inhibition, most hits filed as inhibitors. hit rate 0.43% among 200,000. AID 1478. P25779. purified cruzain, Z-FR-AMC fluorescence, 0.01% Triton;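 further: plate controls were neutral wells for no effect and buffer without enzyme for full effect; nearly all actives have a fitted effect of over 40% in size; top concentration of the series not given in the record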
Target sequence (P25779 123-467 limits assumed): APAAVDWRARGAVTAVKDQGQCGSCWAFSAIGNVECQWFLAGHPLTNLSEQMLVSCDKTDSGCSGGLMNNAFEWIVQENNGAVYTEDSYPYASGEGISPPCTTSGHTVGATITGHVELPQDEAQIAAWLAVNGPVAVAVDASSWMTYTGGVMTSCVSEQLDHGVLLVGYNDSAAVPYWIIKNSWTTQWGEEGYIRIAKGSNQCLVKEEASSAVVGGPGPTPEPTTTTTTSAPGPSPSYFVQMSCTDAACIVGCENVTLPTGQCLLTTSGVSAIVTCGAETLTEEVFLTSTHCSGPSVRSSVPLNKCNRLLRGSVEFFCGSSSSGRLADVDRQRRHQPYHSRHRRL
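Sodium acetate buffer (100 mM, pH 5.5) containing 5 mM DTT and 0.01% Triton X-100 hosted 1.5 nM cruzain and test compound for 15 min at room temperature. Cleavage of 2 uM Z-FR-AMC was then tracked by fluorescence.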
StopGo reporter: lowers the luciferase signal of an FMDV 2A StopGo reporter; Potency, µM (titrated, usually from 57.9 µM), for inactives: at the top dose signal change, negative = less light; human cells with a luciferase reporter of 2A StopGo recoding; control for the full effect not named in the record; AID 1159524; hit rate 1.2% among 410,000; active = well fitted falling curve with a large enough effect; inconclusive = small, poorly fitted or top-dose-only effect; inactive = no such curve, though single readings can be large or run the other way; tested in HEK293T cells; further: on the % scale 0 is the no-effect control and ±100 the full control effect; nearly all actives have a fitted effect of over 45% in size; luciferase light after 4 h
NS1 inh: blocks influenza NS1 protein function; S. cerevisiae slowed by influenza A NS1, growth recovery by OD600; Potency, µM (doses to about 46.1 µM), for the others: top-dose activity, positive = more growth; hit rate 0.4% among 270,000; active means well fitted rising curve with a large enough effect; inconclusive means small, poorly fitted or top-dose-only effect; inactive means no such curve, though single readings can be large or run the other way; further: nearly all actives have a fitted effect of over 50% in size
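Growth recovery, yeast-based: influenza A NS1 expressed in S. cerevisiae causes slow growth, and suppressors are detected by OD600. The parent strain without NS1 is used as positive control.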
RE007 growth inh: less growth of the S. pombe RE007 Vpr strain; AID 651644; Potency, µM (doses to about 92.2 µM), for inactives: at the top dose activity change, negative = less growth; S. pombe RE007 Vpr strain, BacTiter-Glo ATP luminescence, 24 h; control for the full effect not named in the record; hit rate 0.21% among 360,000; active = well fitted falling curve with a large enough effect; inconclusive = small, poorly fitted or top-dose-only effect; inactive = no such curve, though single readings can be large or run the other way;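 further: on the % scale 0 is the no-effect control and ±100 the full control effect; nearly all actives have a fitted effect of over 50% in size; the assay follows cell death caused by Vpr and the record does not say whether a fall means rescue or toxicity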
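Fission yeast strain RE007, carrying one chromosomally integrated HIV-1 vpr copy, was seeded at OD 0.01 in PMG+AL medium with 23 nL pinned compound. After 24 h at 30 °C and 99% humidity, viability was read by BacTiter-Glo luminescence.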
Cruzain noTriton: inhibitors of Trypanosoma cruzi cruzain without detergent. Potency, µM, for inactives: max response, negative = inhibition, hits mostly inhibitors. purified cruzain, Z-FR-AMC fluorescence, no detergent. hit rate 2.3% among 200,000. AID 1476;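 further: plate controls were enzyme without inhibitor for no effect and buffer without enzyme for full effect; nearly all actives have a fitted effect of over 40% in size; top concentration of the series not given in the record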
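Detergent-free condition (0.00005% Triton X-100) in acetate buffer pH 5.5 with DTT. 1.5 nM enzyme and compound were pre-mixed 15 min, then 2 uM Z-FR-AMC substrate added; reaction progress from fluorescence change between first and third reads (60 s).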
MARV entry inh: inhibitors of Marburg virus binding or cell entry; Marburg virus pseudotyped entry inhibition, cell reporter; control for the full effect not named in the record; about a third of the inactives were read at about 46 µM; Potency, µM (series often up to 37.8 µM), for the others: at the top dose activity change, negative = inhibition, usual class: inhibitors; hit rate 1.8% among 300,000; active = well fitted inhibition curve with a large enough effect; inconclusive = small, poorly fitted or top-dose-only effect, or effect the other way; inactive = flat fitted curve, though single readings scatter; tested in HEK293 cells; about a fifth of its hits are not listed in these tables; further: on the % scale 0 is the no-effect control and ±100 the full control effect; luciferase read-out
SARS PLP yeast: inhibitors of SARS-CoV papain-like protease in yeast; S. cerevisiae expressing SARS-CoV PLpro, growth rescue; control for the full effect not named in the record; Potency, µM (highest dose often 32.9 µM), inactives show top-dose activity, positive = growth rescue; hit rate 0.19% among 330,000; AID 485353; active means well fitted rising curve with a large enough effect; inconclusive means small, poorly fitted or top-dose-only effect; inactive means no such curve, though single readings can be large or run the other way; further: 0% is about no effect; nearly all actives have a fitted effect of over 55% in size; growth read by luminescence after 48 h
LASV entry inh: blocks Lassa virus binding to or entry into cells | Lassa virus pseudotype entry inhibition, cell reporter; control for the full effect not named in the record | Potency, µM (series often up to 37.9 µM), inactives show top-dose activity change, negative = inhibition, actives largely listed as inhibitors | hit rate 1.2% among 300,000 | AID 540256; active means well fitted inhibition curve with a large enough effect; inconclusive means small, poorly fitted or top-dose-only effect, or effect the other way; inactive means flat fitted curve, though single readings scatter; tested in HEK293 cells; further: on the % scale 0 is the no-effect control and ±100 the full control effect; nearly all actives have a fitted effect of over 50% in size; luciferase read-out
* = called active by the depositor; ? = inconclusive; . = not tested or not shown; & = joins results of further samples; [ ] = remark or other dose. Unless noted, the call rests on the fitted dose curve; in most records, active means well fitted curve in the direction sought with a large enough effect; inconclusive means small, poorly fitted or top-dose-only effect, or another doubt; inactive means no such curve, though single readings can be large; an effect the other way counts as inactive or inconclusive. Potency means the concentration at half of the fitted maximal effect.

SMILES	Cruzain Triton	StopGo reporter	NS1 inh	RE007 growth inh	Cruzain noTriton	MARV entry inh	SARS PLP yeast	LASV entry inh
CCOC(=O)c1cnc(SC)nc1Oc1cccc(NS(=O)(=O)c2ccc(C)cc2)c1	0.7%	10%	10%	-1%	?	?	5%	?
CCN(CC)S(=O)(=O)c1ccc(NC(=S)NC(=O)C2CCC2)cc1	.	8%	-21%	7%	.	?	-2%	-4%[46.1 µM]
O=C(NCc1ccncc1)c1cccc(NS(=O)(=O)c2ccc(F)c(F)c2)c1	.	-6%	.	-11%	.	?	0%	-19%
Cc1ccc(S(=O)(=O)c2nnn(-c3ccc(F)c(Cl)c3)c2N)cc1	0.4%	-26%	.	.	-10%	.	.	?
CCn1nc(C)cc1C(=O)N1CCCC(N(C)CCc2ccc(OC)c(OC)c2)C1 (stereo not given)	.	-10%	22%	3%	.	-4%	5%	-6%
COC(=O)CCC(=O)Nc1ccc(S(=O)(=O)N2CCc3ccccc32)cc1	.	-14%	8%	-10%	.	-8%	-3%	-1%
NC(=O)c1ccc(NC(=O)C2CCN(S(=O)(=O)Cc3ccccc3)CC2)cc1	-3.8%	-23%	.	.	6%	-2%[46.1 µM]	.	-6%[46.1 µM]
COc1ccc2nc(SCc3cccc(C)c3)nc(C)c2c1	-8.0%	41%[activator]	0%	15%	26%	?	?	?
COc1cc(C(=O)c2c(C)c(CCC#N)n3ccccc23)cc(OC)c1OC	.	-15%	7%	-13%	.	-1%[46.1 µM]	-2%	-3%[46.1 µM]
CCOc1ccc(N2CC(C(=O)Oc3ccccc3)CC2=O)cc1 (stereo not given)	-0.8%	.	-3%	-17%	2%	-9%	2%	-9%
CCOc1ccc(NC(=O)Cn2cc(C(=O)CC)c3ccccc32)cc1	.	-8%	1%	-9%	.	.	0%	.
N#CC[C@H](Cc1ccccc1)N1CCN(CCc2ccccc2)CCC1=O	.	6%	14%	-15%	.	.	-8%	.
O=C(O)C1CCN(C(=O)CSc2nc3ccccc3s2)CC1	.	-7%	.	-16%	.	5%[46.1 µM]	0%	-1%
CC(C)OCCCn1c(=O)c2ccccc2n2c(CCC(=O)O)nnc12	.	9%	2%	-6%	.	20%	3%	12%
COc1ccccc1Nc1ncc(C(=O)Nc2ccc(OC)c(OC)c2)c2ccccc12	-3.5%&-3.9%	-15%&-8%	2%	32%	18%&11%	27%[46.1 µM]	-3%	?
Cc1oc(-c2ccccc2)nc1CN1C(=O)C(C)N=C(c2ccccc2F)c2cc(Cl)ccc21 (stereo not given)	-3.0%	?	-19%	10%	?	1%	-1%	?
Cc1ccc(NC(=O)c2cnn(-c3ccccc3)c2NC(=O)c2ccco2)cc1	-4.4%	-19%	-12%	-6%	-16%	?	-1%	-14%
CC(=O)Nc1ccc(S(=O)(=O)Nc2ccc3c(c2)OCCO3)cc1Cl	.	-16%	-3%	1%	.	-29%[46.1 µM]	1%	-14%[46.1 µM]
CCN(CC)C(=O)c1[nH]cnc1C(=O)N[C@@H](CC(C)C)C(=O)OCc1ccccc1	.	-11%	-7%	-4%	.	.	-3%	.
CC(/C=N/n1c(-c2cc(C)[nH]n2)n[nH]c1=S)=C\c1ccco1	.	2%	7%	2%	.	?	0%	-10%
Cc1ccc(C)c(OCC(=O)Nc2ccccc2C(=O)N2CCN(C)CC2)c1	.	-12%	16%	-4%	.	-4%[46.1 µM]	2%	3%
CCOc1ccc(/C=C2\SC(=O)N(CCNC(=O)CN3C(=O)NC4(CCCC4)C3=O)C2=O)cc1OC	.	-26%	0%	-8%	.	1%	0%	1%
O=C(c1cccs1)c1coc2ccc(O)c(CN(CCO)CCO)c12	4.7%	58%[activator]	4%	0%	-19%	15%	0%	-4%
Cc1nn(C(=O)c2cccnc2)c(C)c1Sc1ccccc1	-5.4%	-12%	-5%	14%	-1%	4%	-10%	6%
COc1ccc(CCC(C)N(C)Cc2ccccc2)cc1 (stereo not given)	.	-11%	1%	-1%	.	.	0%	.
O=C(Cc1ccccc1)Nc1ccc(Cl)cn1	.	47%[activator]	-12%	6%	.	17%	-15%	20%
COC(=O)c1ccccc1NC(=O)C1CCCN(c2nnc(-n3cccc3)s2)C1 (stereo not given)	-4.3%	?	-103%	-13%	17%	-12%	-30%	-1%
CN(Cc1ccccc1)C(=O)COC(=O)c1cc([N+](=O)[O-])ccc1N1CCOCC1	.	-23%	.	2%	.	-24%	-15%	5%
CCC(C)n1c(OC)nc2c1c(=O)n(C)c(=O)n2C (stereo not given)	.	23%	-3%	6%	.	15%[46.1 µM]	-1%	4%
CCc1nc(SCC(=O)N2CCCCC2)c2c(=O)n(C)c(=O)n(C)c2n1	.	-30%	4%	8%	.	.	-1%	.
O=C(N=Nc1c(O)[nH]c2ccc([N+](=O)[O-])cc12)c1ccccc1[N+](=O)[O-]	.	-5%	-2%	0%	.	.	0%	.
NS(=O)(=O)c1ccc(CCNC(=O)CSc2nc3ccsc3c(=O)n2C2CC2)cc1	1.4%	-13%	-3%	?	-7%	-8%	-9%	-5%
Cc1ccc(Cn2c(CO)cnc2SCC(=O)Nc2ccc(C)c(Cl)c2)cc1	-7.5%	-25%	.	.	28%	.	.	-7%[46.1 µM]
O=C(Nc1ncccc1Cl)C1COc2ccccc2O1 (stereo not given)	1.7%	.	17%	4%	-7%	12%	1%	2%
Cc1c(OCC(=O)N[C@@H](Cc2ccccc2)C(=O)O)ccc2c3c(c(=O)oc12)CCC3	.	-14%	-6%	-6%	.	.	0%	.
Cc1ccc(-c2nc(S(=O)(=O)c3ccc(C)cc3)c(N3CCN(c4ccccc4)CC3)o2)cc1	-0.2%	-25%	.	.	0%	-4%[46.1 µM]	.	-23%[46.1 µM]
CCCCCc1ccc(-c2cn(CC3CCCCC3)nn2)cc1	.	-2%	?	12%	.	.	0%	.
CC1(C)CC(NC(=O)c2ccncc2)CC(C)(C)N1O	.	6%	-3%	33%	.	.	1%	.
C[C@@H](C(=O)NC1CCCCC1)N1C(=O)N2CCc3c([nH]c4ccccc34)[C@@]2(C)C1=O	.	?	-1%	-10%	.	.	-5%	.
COc1ccc(-c2c(C)nn(-c3ccccc3)c2N)cc1	-1.3%	80%[activator]	-73%	-13%	0%	4%	-4%	?

Part of the list above in order of count of non-hydrogen atoms, ascending:
SMILES	Cruzain Triton	StopGo reporter	NS1 inh	RE007 growth inh	Cruzain noTriton	MARV entry inh	SARS PLP yeast	LASV entry inh
CCC(C)n1c(OC)nc2c1c(=O)n(C)c(=O)n2C (stereo not given)	.	23%	-3%	6%	.	15%[46.1 µM]	-1%	4%
O=C(Nc1ncccc1Cl)C1COc2ccccc2O1 (stereo not given)	1.7%	.	17%	4%	-7%	12%	1%	2%
COc1ccc(-c2c(C)nn(-c3ccccc3)c2N)cc1	-1.3%	80%[activator]	-73%	-13%	0%	4%	-4%	?
CCCCCc1ccc(-c2cn(CC3CCCCC3)nn2)cc1	.	-2%	?	12%	.	.	0%	.
O=C(N=Nc1c(O)[nH]c2ccc([N+](=O)[O-])cc12)c1ccccc1[N+](=O)[O-]	.	-5%	-2%	0%	.	.	0%	.
Cc1ccc(Cn2c(CO)cnc2SCC(=O)Nc2ccc(C)c(Cl)c2)cc1	-7.5%	-25%	.	.	28%	.	.	-7%[46.1 µM]
COC(=O)c1ccccc1NC(=O)C1CCCN(c2nnc(-n3cccc3)s2)C1 (stereo not given)	-4.3%	?	-103%	-13%	17%	-12%	-30%	-1%
NS(=O)(=O)c1ccc(CCNC(=O)CSc2nc3ccsc3c(=O)n2C2CC2)cc1	1.4%	-13%	-3%	?	-7%	-8%	-9%	-5%
Cc1c(OCC(=O)N[C@@H](Cc2ccccc2)C(=O)O)ccc2c3c(c(=O)oc12)CCC3	.	-14%	-6%	-6%	.	.	0%	.
Cc1ccc(-c2nc(S(=O)(=O)c3ccc(C)cc3)c(N3CCN(c4ccccc4)CC3)o2)cc1	-0.2%	-25%	.	.	0%	-4%[46.1 µM]	.	-23%[46.1 µM]

The results go on.
SMILES	Cruzain Triton	StopGo reporter	NS1 inh	RE007 growth inh	Cruzain noTriton	MARV entry inh	SARS PLP yeast	LASV entry inh
Cc1n[nH]c(C)c1S(=O)(=O)N1CCCC(C(=O)N2CCc3ccccc32)C1 (stereo not given)	3.1%	?	-9%	21%	15%	-23%	8%	-4%
CCOC(=O)c1c(Nc2cccc(C(=O)OC)c2)nnc(-c2ccccc2)c1-c1ccccc1	-5.0%	?	.	.	-18%	?	.	?
Cc1cccc(CSc2nc(N)c(C#N)c(-c3cccs3)c2C#N)c1	-5.1%	?	11%	-16%[3.69 µM]	25µM*	?	19%	-21%
O=c1[nH]n(-c2ccccc2)c(=O)c(Cl)c1Cl	-5.2%	11%	7%	9%	1%	1%	-9%	-8%
COc1ccccc1N1CCN(S(=O)(=O)c2ccc3nc(-c4ccccc4)[nH]c3c2)CC1	-2.9%	-23%	24%	-3%	-7%	?	28%	?
Cc1cccc(NC(=O)CSc2nnc(CNC(=O)c3ccco3)n2C)c1C	.	-4%	.	-7%	.	13%	1%	7%
COc1ccccc1CNC(=O)CSCc1nc(-c2ccc(OC)c(OC)c2)oc1C	1.0%	-22%	.	.	-2%	?	.	-12%[46.1 µM]
CCN(CC)S(=O)(=O)c1ccc2[nH]c(=O)c3ccccc3c2c1	.	-3%	14%	-14%	.	.	12%	.
CN1CCN(C(=O)c2cc(Cl)ccc2Cl)CC1	2.9%	-4%	?	-10%	-4%	-3%	-3%	8%
Cc1ccc(C)c2c1sc(=NC(=O)CN1C(=O)CCC1=O)n2C	-1.4%	-19%	9%	5%	12%	.	5%	.
O=C1C=CC(=C(c2ccc(O)cc2)c2ccc(O)cc2)C=C1	-12%	13µM*	.	1%	-13%	.	-1%	.
COc1ccc(C2/C(=C(/O)c3ccc(C)cc3)C(=O)C(=O)N2C)c(OC)c1 (stereo not given)	.	2%	?	-8%	.	20%	5%	8%
